GIV-Gai inh: inhibitors of GIV GBA-motif binding to rat Galpha-i3 | P08753 | Galpha-i3/FITC-GIV peptide fluorescence polarization, 90 min; active compounds read low; scaled: aluminum fluoride 0%, vehicle 100% | percent of control (FP), % (concentration not given with the values) | hit rate 0.42% among 210,000 | AID 1224905;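 active = replicate mean at 85% of control or lower, very high polarization wells dropped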;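 note: wells of about 15 µL received 100 nL stock; the first replicate is given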
Target sequence (P08753 whole entry, looked up): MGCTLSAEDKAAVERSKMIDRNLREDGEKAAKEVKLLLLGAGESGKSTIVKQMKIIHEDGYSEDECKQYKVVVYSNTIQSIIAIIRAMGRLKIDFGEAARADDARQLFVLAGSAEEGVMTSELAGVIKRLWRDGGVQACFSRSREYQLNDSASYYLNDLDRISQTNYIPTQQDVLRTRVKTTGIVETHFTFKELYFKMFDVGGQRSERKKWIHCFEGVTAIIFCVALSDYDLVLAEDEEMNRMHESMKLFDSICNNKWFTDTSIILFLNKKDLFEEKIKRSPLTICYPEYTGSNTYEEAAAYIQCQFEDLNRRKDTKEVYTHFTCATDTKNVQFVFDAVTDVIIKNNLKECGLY
HCMV UL50-53 inh: disrupts HCMV UL50-UL53 complex binding; AID 1918969; inhibition, % (concentration not given with the values); HTRF UL50-UL53 interaction, normalized percent inhibition; hit rate 0.15% among 190,000;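 active = both replicates at 50% or more, plus weaker picks with an unusually low signal ratio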;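 note: stock transfer was 100 nL into about 20 µL; 0% = negative control wells and 100% = wells with untagged competitor protein; inactives centre near -12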
Sa growth 42C: S. aureus growth inhibition. S. aureus RN4220 growth, OD600, 20 h, 42 °C; active compounds read low. AID 720641. relative growth, % (test concentration not listed). hit rate 0.53% among 170,000;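 active = growth at 42 °C up to 50% and 20 or more points under that at 30 °C, or under 10% at both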;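 note: 300 nL library stock went into each well; scaled to the means of positive and negative controls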
Sa growth 42C second temp: recorded beside Sa growth 42C, whose call it bears; relative growth, %; measured here: growth at 30 °C;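 optical density after 20 h as mean of two plates; 100% = untreated growth and lower means inhibition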
An asterisk follows results filed as active; nt = no result given; & = joins results of further samples.

Every second line gives: GIV-Gai inh	HCMV UL50-53 inh	Sa growth 42C	Sa growth 42C second temp
> O=C(NCc1cccs1)c1ccc(=O)[nH]c1
→ nt	-34	94	89
> CSCCC(=O)N1CCN(c2ncccn2)CC1
→ nt	-26	89	89
> COc1cccc(N2CCN(C(=O)Cn3ncc4c5ccccc5n(C)c4c3=O)CC2)c1
→ 104	-19	100	86
> C(=N\c1nc2ccccc2n1CCN1CCCCC1)/c1ccc2c(c1)OCO2
→ 105	-22	95	85
> O=c1c2cc(NC(=S)NCc3ccccn3)ccc2nc2n1CCCCC2
→ 103	nt	104	78
> N#CC1(N2CCOCC2)CCCCC1
→ 102	0	99	109
> COc1cc(NC(=O)c2oc3c(c2C)-c2nn(Cc4cccc(Cl)c4)cc2CC3)cc(OC)c1
→ 101	-23	100	91
> COc1cccc(N2CCN(c3ncnc4c3nc3n4CCCCC3)CC2)c1
→ 103	nt	81	76
> Cc1ccc(NC(=O)c2nn(C)c3c2CSc2ccccc2-3)cc1C
→ 101	-2	nt	nt
> Cc1cc(=O)[nH]c2nnc(SCc3ccc(Cl)cc3Cl)n12
→ 101	nt	104	99
> CCN(CC)c1ccc(NC(=O)CCS(=O)(=O)c2ccc3c(c2)oc(=O)n3C)c(C)c1
→ 101	nt	89	87
> O=C1O[C@@H]2C[C@H]3C[C@@H]2[C@@H]1[C@H]3C(=O)N1CCN(c2ccccc2)CC1
→ 99	-11	90	83
> CCCCn1c(CNC(=O)c2ccc(OC)cc2)nnc1SCC(=O)Nc1ccc(OC)cc1
→ 98	-15	102	87
> CCc1ccc2nc(NC(=O)c3c(C)oc(-n4cccc4)c3C#N)sc2c1
→ nt	-10	81	89
> Cc1cc(C(=O)COC(=O)c2ccc(S(=O)(=O)N(C)C)cc2)c(C)n1-c1ccc2c(c1)OCO2
→ nt	-24	102	92
> CSc1ncc(C(=O)NCc2ccccc2)c(-c2ccccc2)n1
→ 95	nt	97	89
> CCCCN(CCCNC(=O)c1cc(Nc2ccc(OC)c(OC)c2)nc2ccccc12)Cc1ccccc1
→ 100	-23	102	85
> CCOC(=O)C1=C(Cn2ccnc2)NC(=O)NC1c1ccc(OC(C)C)cc1 (stereo unspecified)
→ 110	-10	78	79
> CCCc1cc(Sc2ccc(NC(=O)c3ccccc3Br)cc2)n2ncnc2n1
→ 101	10	nt	nt
> CC(C)Oc1ccc(CNC(=O)CN2C(=O)CSc3sc(S(=O)(=O)N4CCCC4)cc32)cc1
→ 105	-27	nt	nt

Sorted by SMILES length (largest number first): some entries from above.
Every second line gives: GIV-Gai inh	HCMV UL50-53 inh	Sa growth 42C	Sa growth 42C second temp
> CCOC(=O)C1=C(Cn2ccnc2)NC(=O)NC1c1ccc(OC(C)C)cc1 (stereo unspecified)
→ 110	-10	78	79
> COc1cccc(N2CCN(c3ncnc4c3nc3n4CCCCC3)CC2)c1
→ 103	nt	81	76
> O=c1c2cc(NC(=S)NCc3ccccn3)ccc2nc2n1CCCCC2
→ 103	nt	104	78

Continuation:
Every second line gives: GIV-Gai inh	HCMV UL50-53 inh	Sa growth 42C	Sa growth 42C second temp
> CCN1CCC(NC(C)c2ccc(OC)cc2)CC1 (stereo unspecified)
→ 105	-14	97	86
> CCC(=O)c1cn(CC(=O)N(CC)CC)c2ccccc12
→ nt	1	108	94
> COc1cc(C=C2C(=O)NC(=S)NC2=O)cc(Cl)c1OCCOc1ccc(C)cc1
→ 96	-14	nt	nt
> O=C(NCCCn1ccnc1)c1cc(-c2cccs2)on1
→ 98	-59	95	81
> O=C1NC(=O)c2ccc3c4c(ccc1c24)C(=O)N(c1ccccc1)C3=O
→ 103	-48	5.5*	15*
> COC(=O)c1ccccc1NC(=O)CSc1ncc(S(=O)(=O)c2ccc(OC)c(Cl)c2)c(=O)[nH]1
→ 113	-36	nt	nt
> CCc1ccc(-n2nc(C)c3c(C(=O)Nc4ccc(Cl)cc4)cc(C)nc32)cc1
→ 101	nt	72	84
> O=S(=O)(c1ccccc1)c1cccc(S(=O)(=O)N2CCCC2)c1
→ 98	-11	119	73
> CC(=O)N1c2ccc(S(=O)(=O)NC(C(=O)Nc3nccs3)C(C)C)cc2CC1C (stereo unspecified)
→ 103	-28	84	82
> CC(Oc1ccc(Br)cc1Cl)C(=O)NC(N)=O (stereo unspecified)
→ nt	-4	121	88
> CCc1ccc(-n2nc(C)c3c(C)cc(=O)n(CC(=O)N4CCCc5ccccc54)c32)cc1
→ 97	nt	97	91
> O=C(O)c1cc(-c2ccccc2Cl)on1
→ nt	-10	95	75
> Cc1ccc(Cn2c(=O)n(Cc3ccco3)c(=O)c3oc4ccccc4c32)cc1
→ 103	nt	96	103
> CC(Sc1nnc(-c2ccc3c(c2)OCO3)o1)C(N)=O (stereo unspecified)
→ 98	1	84	97
> FC(F)(F)c1cc(-c2ccccc2)nc2ncnn12
→ 97	-86	91	80
> O=C1C(c2sc3ccccc3c2O)=Nc2ccccc21
→ 105	-24	nt	nt
> Cc1ccc(S(=O)(=O)c2nc(S(=O)(=O)c3ccccc3)sc2NCCCOC(C)C)cc1
→ 97	-17	100	95
> COC(=O)CN1C(=S)N(c2ccccc2)C(=O)C1CC(=O)Nc1ccc(F)cc1 (stereo unspecified)
→ 100	nt	79	79
> CCN(Cc1cn2cccnc2n1)C1CCCCC1
→ nt	-8	109	91
> O=C(/C=C/c1ccc(Br)o1)Nc1ccc(F)cc1F
→ nt	-52	98	74

Other records.
Every second line gives: GIV-Gai inh	HCMV UL50-53 inh	Sa growth 42C	Sa growth 42C second temp
> Cc1cccc(NC(=O)c2c(C)oc3ncnc(N4CCCCC4)c23)n1
→ 100	-6	nt	nt
> COc1cc(NC(=O)[C@@H](NC(=O)c2cc(OC)cc(OC)c2)C(C)C)cc(OC)c1
→ nt	-22	100	101
> CC(C)Cn1c(SCC(=O)NCC(F)(F)F)nc2ccccc21
→ nt	-10	90	95
> COc1cccc(NC(=O)Cn2c(=O)n(Cc3ccc4c(c3)OCO4)c(=O)c3oc4ccccc4c32)c1
→ 99&103	30	118	95
> CNc1nc(-c2ccc(O)cc2O)cs1
→ nt	-32	74	19
> CCCOc1cccc(C(=O)Nc2ccc(-c3cc4ccccc4oc3=O)c(C)c2)c1
→ 106	-15	94	94
> CCOc1ccc(C2CC(=O)NC(SCC(=O)Nc3cccc(OC)c3)=C2C#N)cc1 (stereo unspecified)
→ 98	-12	79	77
> CC1CCN(C(=O)Cn2c(=O)n(-c3ccc(Cl)cc3)c(=O)c3c4c(sc32)CCC4)CC1
→ 104	7	100	92
> Cc1ccc(OC(C)C(=O)N2CCN(CCc3ccccn3)CC2)cc1C (stereo unspecified)
→ 98	-18	109	85
> Cc1ccn2c(=O)cc(CNCC(c3ccco3)N3CCCCC3)nc2c1 (stereo unspecified)
→ nt	7	86	84
> COc1ccccc1NC(=O)Cn1c(=O)n(-c2ccc(CC(=O)NC3CC3)cc2)c(=O)c2ccccc21
→ 98	-9	nt	nt
> O=C(NC1CCN(Cc2ccccc2)CC1)C1=Cc2cc(Cl)ccc2OC1
→ 99	-37	86	88
> NC(=O)C1CCN(C(=O)c2sc3ccccc3c2Cl)CC1
→ nt	10	116	102
> CCOC(=O)c1cc(-c2ccc(S(=O)(=O)N(Cc3cccs3)C3CCCCC3)s2)on1
→ 111	-4	97	98
> CC1CCN(C(=O)c2c[nH]c3ccc(F)cc3c2=O)CC1
→ 101	-12	nt	nt
> CCOc1cc(C(=O)Nc2ccc(-c3nc4ccccc4s3)cc2Cl)cc(OCC)c1OCC
→ 99	nt	126	98
> CNCc1cc2ccccc2o1
→ 100	nt	104	83
> O=C(NCCc1ccccc1)c1ccc(=O)[nH]n1
→ nt	-27	80	86
> CN(C)c1ccc(NC(=O)Cn2nnc3sc4c(c3c2=O)CCC(C(C)(C)C)C4)cc1 (stereo unspecified)
→ 98	-26	105	89
> COc1ccc(NC(=O)c2c(NCc3ccc(C)o3)sc3c2CCC(C)C3)c(OC)c1 (stereo unspecified)
→ 97	nt	101	89

Continued:
Every second line gives: GIV-Gai inh	HCMV UL50-53 inh	Sa growth 42C	Sa growth 42C second temp
> CC(C)CNS(=O)(=O)c1ccc(N2CCCCS2(=O)=O)cc1
→ 98	nt	97	93
> O=S(=O)(NCCCn1ccnc1)c1ccc2ccccc2c1
→ nt	-26	110	63
> COc1ccccc1NC(=O)N1Cc2cccn2-c2ccccc21
→ 102	-29	nt	nt
> COc1nnc(-c2ccccc2)c2ccccc12
→ 101	-7	113	63
> CCOC(=O)c1cc(C)[nH]c(=S)c1C#N
→ nt	-68	69	71
> Cc1ccc2c(=O)c(C(=O)c3ccccc3)cn(CC(N)=O)c2n1
→ 117	-33	113	83
> COC(=O)c1ccc(COC(=O)c2oc3ccc(OC)cc3c2C)o1
→ nt	-20	86	91
> Cc1ccc(/C=C/c2onc(C)c2S(=O)(=O)N2CCC(C(=O)Nc3ccccc3C(F)(F)F)CC2)cc1
→ 98	nt	90	88
> O=C(NC1CCCc2ccccc21)c1cc2ccccc2o1 (stereo unspecified)
→ nt	-15	59	59
> CCOc1ccc2oc(C)c(C(=O)Nc3ccc(OC)cc3)c2c1
→ 107	-8	nt	nt
> CCOc1ccc(N2C(=O)c3ccccc3NC2c2ccc(C(=O)O)cc2)cc1 (stereo unspecified)
→ 104	-11	nt	nt
> CC(=O)Oc1ccc(C(=O)O)cc1OC(C)=O
→ nt	-19	86	93
> COc1ccc(NC(=O)CCS(=O)(=O)c2cc(Br)cc3c2N(C(=O)C2CC2)CC3)cc1OC
→ 105	0	90	77
> O=C(Nc1cnc2sccn2c1=O)c1ccccc1
→ 114	-8	94	89
> CCOC(=O)c1cnc2nc(CCc3ccccc3)[nH]n2c1=O
→ 100	-29	86	87
> CCCCOc1ccc(C2=NC(c3ccccc3)=Nc3ccc(OC)cc3N2)cc1
→ 101	-34	103	87
> O=S(=O)(c1ccccc1)n1nc(-c2cccnc2)nc1NCc1cccs1
→ 106	nt	87	62
> O=C(O)CCC(=O)Nc1ccc(COc2ccccc2)cc1
→ 103	8	130	105
> CS/C(NCc1cccnc1)=C(/C#N)S(=O)(=O)c1ccc(Cl)cc1
→ 100	3	122	87
> COc1ccc(CCNC(=O)c2ccc3c(c2)nc(C)n3-c2ccc(Br)cc2)cc1OC
→ 104	nt	104	89

Carrying on:
Every second line gives: GIV-Gai inh	HCMV UL50-53 inh	Sa growth 42C	Sa growth 42C second temp
> O=C(NC1CCCCC1)N1CCc2cc(S(=O)(=O)NCC3CCCO3)ccc21 (stereo unspecified)
→ 103	-14	nt	nt
> COC(=O)c1cc(S(=O)(=O)NCC(C)c2ccccc2)cn1C (stereo unspecified)
→ 105	-23	95	86
> Cc1cccc(CN2CC=C(C(=O)Nc3ccc(C)c(C)c3)CC2)c1
→ 106	1	nt	nt
> COc1ccc(OC)c(C(=O)CSC#N)c1
→ 108	-6	98	92
> CCN(CC)c1ccc(C(=O)OCC(=O)NC2CCCCC2)cc1
→ nt	-11	103	83
> Nc1nc(N(Cc2ccccc2)Cc2ccccc2)nc(C(F)(F)F)n1
→ nt	-11	113	96
> O=C1NC(c2ccc(Cl)cc2)=CC(c2ccc(Cl)cc2)N1 (stereo unspecified)
→ nt	4	111	95
> Cc1cc(C)nc(NS(=O)(=O)c2ccc(Nc3nc(-c4ccncc4)cs3)cc2)n1
→ 102	-27	nt	nt
> COc1ccc(Cl)cc1NC(=O)CCCS(=O)(=O)c1nc(-c2ccc(OC)c(OC)c2)cc(C(F)(F)F)n1
→ 106	-29	100	90
> CC1(C)CC(=O)c2cc(-c3ccc(Br)cc3)n(CC(=O)O)c2C1
→ nt	6	101	98
> O=C(Cn1cccc1)NCCc1ccc(Cl)cc1
→ 101	-5	nt	nt
> Cc1cc2c(n1-c1ccc(C(=O)NCCN(C)C)cc1)CCCC2
→ 103	-36	100	79
> Oc1c(C(Nc2ccccn2)c2cccnc2)ccc2cccnc12 (stereo unspecified)
→ nt	-44	79	31
> O=C(O)c1cnn2c(C(F)(F)F)cc(-c3ccc(F)cc3)nc12
→ 107	-101	103	90
> O=C(CCSCc1cnn(-c2ccccc2)c1-n1cccc1)N1CCCCCC1
→ 106	4	100	78
> CCOC(=O)c1ccccc1NC(=O)CN1C(=O)c2cccc3cccc1c23
→ 100	4	86	97
> Cc1cc2ncn(/N=C/c3ccc4c(c3)OCO4)c2cc1C
→ nt	3	123	98
> CC(=O)Oc1ccc(-c2cccc(C(=O)O)c2)cc1
→ nt	-31	91	88
> CN1CCc2nc3sc(C(=O)Nc4ccccc4OC(F)(F)F)c(N)c3cc2C1
→ 106	nt	110	86
> COC(=O)Cc1cc(=O)[nH]c(/N=C(\N)Nc2ccccc2)n1
→ 106	nt	91	97
